Compound activity deposited in PubChem BioAssay by Broad Institute.
Vaccinia inh: Vaccinia orthopox stage-specific inhibition | Vaccinia-infected cells, mCherry/Venus stage reporter fluorescence; stronger effect = lower value; some inactives read as strong as hits | activity change (mCherry), % (concentration not given with the values) | actives 0.01% (n = 89,000);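 active = mCherry past -33% and 40 or more points under the early reporter, replicates agreeing; inconclusive = past -33% without that gap or agreement; tested in A549 cells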;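 note: scaled between vehicle wells and reference inhibitor wells; 23 nL library stock went into each well; one replicate is shown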
Vaccinia inh Venus: also measured in Vaccinia inh; calls as there; activity change (Venus), %; measured here: Venus reporter, other viral stage;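 negative = less Venus signal; first of two replicates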
Starred values were filed as active, the others as inactive; ? = inconclusive; / = no result given; & = joins results of further samples.

entry | mol | Vaccinia inh Venus | Vaccinia inh
1 | C[C@H]1CN([C@@H](C)CO)C(=O)CCCn2cc(nn2)CO[C@@H]1CN(C)S(=O)(=O)c1ccc(-c2ccccc2)cc1 | -6&-2 | -17&0
2 | C[C@@H]1CCCCO[C@@H](CN(C)Cc2ccc(C(F)(F)F)cc2)[C@@H](C)CN([C@H](C)CO)C(=O)c2cc(NC(=O)Nc3ccc4c(c3)OCO4)ccc2O1 | -2 | 8
3 | O=C(Nc1ccc2c(c1)OCO2)N[C@@H]1CC[C@@H](CCNC(=O)C2CCOCC2)O[C@@H]1CO | -6 | 5
4 | C[C@@H]1CN([C@H](C)CO)C(=O)Cc2cc(NC(=O)C3CC3)ccc2O[C@H]1CN(C)C(=O)Nc1ccc(C(F)(F)F)cc1 | 3 | -1
5 | Cc1ccc(S(=O)(=O)Nc2ccc3c(c2)CC(=O)N([C@@H](C)CO)C[C@H](C)[C@H](CN(C)C(=O)Nc2cccc4ccccc24)O3)cc1 | 14 | 13
6 | CN(C)C(=O)c1ccc(-c2ccccc2[C@H]2[C@H](C#N)N(C(=O)C3CCCCC3)[C@H]2CO)cc1 | 9 | 3
7 | C[C@H](CO)N1C[C@H](C)[C@H](CN(C)Cc2ccccc2)Oc2ccc(NC(=O)CCN3CCOCC3)cc2CC1=O | 1 | 9
8 | C[C@H]1CCCCO[C@@H](CN(C)C(=O)Nc2cccc3ccccc23)[C@@H](C)CN([C@@H](C)CO)C(=O)c2cc(NS(C)(=O)=O)ccc2O1 | 9 | 17
9 | C[C@@H]1CN([C@@H](C)CO)C(=O)c2cc(NC(=O)C3CCCCC3)ccc2O[C@@H](C)CCCCO[C@H]1CN(C)C(=O)Nc1ccc2c(c1)OCO2 | 1 | 1
10 | CN(C)c1ccc2c(c1)[C@H]1C[C@H](CC(=O)NCC3CC3)O[C@@H](CO)[C@H]1O2 | 14 | -4
11 | COc1ccc(S(=O)(=O)N(C)C[C@@H]2Oc3c(NS(=O)(=O)c4c(C)noc4C)cccc3C(=O)N([C@H](C)CO)C[C@@H]2C)cc1 | 8 | 0
12 | C[C@H](CO)N1C[C@H](C)[C@H](CN(C)Cc2ccc3c(c2)OCO3)Oc2ccc(NC(=O)NC3CCCCC3)cc2CC1=O | -5 | 2
13 | C[C@@H]1CN([C@@H](C)CO)C(=O)c2cc(NC(=O)C3CCCCC3)ccc2O[C@@H]1CN(C)Cc1ccc2c(c1)OCO2 | -8 | -20
14 | C[C@@H]1CCCCO[C@H](CN(C)Cc2ccccc2)[C@@H](C)CN([C@H](C)CO)C(=O)c2cc(NC(=O)Nc3ccc(C(F)(F)F)cc3)ccc2O1 | -6 | -6
15 | COc1ccccc1S(=O)(=O)N[C@H]1CC[C@@H](CCn2cc(C3CCCC3)nn2)O[C@H]1CO | 8 | 4
16 | Cc1ccc(S(=O)(=O)N(C)C[C@@H]2OCCCC[C@@H](C)Oc3ccc(NS(=O)(=O)c4c(C)noc4C)cc3C(=O)N([C@@H](C)CO)C[C@@H]2C)cc1 | -14 | -29
17 | C[C@@H](NC(=O)C[C@H]1C[C@H]2c3cc(NC(=O)C4CCOCC4)ccc3O[C@H]2[C@H](CO)O1)c1ccccc1 | -4 | -1
18 | COc1ccc(-c2ccc(C3[C@H]4CNC[C@@H]3N4C(=O)Nc3ccccc3F)cc2)cc1 (stereo not given in full) | -9&-4 | -16&-8
19 | CO[C@@H]1CN(C)C(=O)c2ccc(NC(=O)NC(C)C)cc2OC[C@@H](C)NC[C@@H]1C | -11 | -9
20 | C[C@@H]1CN([C@H](C)CO)C(=O)c2cc(NS(C)(=O)=O)ccc2O[C@@H](C)CCCCO[C@H]1CN(C)C(=O)Nc1ccc(C(F)(F)F)cc1 | -11 | -17
21 | C[C@H]1CN([C@@H](C)CO)C(=O)c2cc(NC(=O)Nc3cccc4ccccc34)ccc2O[C@H]1CN(C)C(=O)Nc1cccc2ccccc12 | 15 | 31
22 | C[C@@H]1CCCCO[C@H](CN(C)S(=O)(=O)c2ccc(Cl)cc2)[C@@H](C)CN([C@H](C)CO)C(=O)c2cc(NC(=O)NC3CCCCC3)ccc2O1 | 4 | 5
23 | C[C@@H]1CN([C@@H](C)CO)C(=O)Cc2cc(NS(=O)(=O)c3ccc(F)cc3)ccc2O[C@@H]1CN(C)CC1CCCCC1 | -7 | -11
24 | CNC[C@@H]1OCCCC[C@H](C)Oc2ccc(NC(=O)Nc3c(C)noc3C)cc2C(=O)N([C@@H](C)CO)C[C@H]1C | 8 | 13
25 | COc1ccccc1-c1ccc(C2[C@H]3CNC[C@@H]2N3Cc2cc(-c3ccccc3)on2)cc1 (stereo not given in full) | 1 | -6
26 | COc1ccc(-c2ccc3n(c2=O)C[C@@H]2[C@@H](CO)[C@H](C(=O)NCC4CC4)[C@H]3N2S(C)(=O)=O)cc1 | 8 | 14
27 | C[C@H](CO)N1C[C@H](C)[C@H](CN(C)C(=O)Oc2ccccc2)OCc2ccccc2-c2c(n(C)c3ccccc23)C1=O | -24 | -33
28 | CO[C@H]1CN(C)C(=O)c2cc(NC(=O)c3ccc(Oc4ccccc4)cc3)ccc2OC[C@@H](C)NC[C@H]1C | / | ?
29 | CN(C)C(=O)C[C@@H]1CC[C@@H](NC(=O)C2CC2)[C@@H](CO)O1 | 3 | 8
30 | C[C@H](CO)N1C[C@H](C)[C@@H](CN(C)S(C)(=O)=O)Oc2ccc(NC(=O)CCN3CCOCC3)cc2CC1=O | 9 | 5
31 | CN1C(=O)c2cc(NC(=O)c3ccccc3)ccc2OC[C@@H]2O[C@H](CC(=O)NCC3CC3)CC[C@H]21 | 0 | 1
32 | CC=Cc1ccc2n(c1=O)C[C@H]1[C@H](CO)[C@@H](C(=O)N[C@@H](C)c3ccccc3)[C@@H]2N1CC (mixture of isomers) | -5 | -6
33 | O=C(O)C1=C[C@@H](c2ccc(Br)cc2)C[C@@H](OCCCCO)O1 | 5 | 3
34 | CC(C)C[C@H]1COCc2cn(nn2)CC[C@H](C)C(=O)N1 | 10 | 11
35 | C[C@@H]1CN([C@H](C)CO)C(=O)Cc2cc(NC(=O)C3CCCCC3)ccc2O[C@@H]1CN(C)C(=O)Nc1ccc(C(F)(F)F)cc1 | 1 | -5
36 | COCC(=O)Nc1ccc2c(c1)C(=O)N(C)C[C@H](OC)[C@@H](C)CN(C(=O)C1CCCC1)[C@H](C)CO2 | -1 | -4
37 | O=C(Nc1ccc(F)cc1)N[C@@H]1CC[C@@H](CCn2cc(C3(O)CCCC3)nn2)O[C@H]1CO | -1 | 1
38 | COc1ccc(NC(=O)Nc2cccc3c2O[C@@H](CN(C)Cc2ccncc2)[C@H](C)CN([C@@H](C)CO)C3=O)cc1 | -2 | 7
39 | C=CC[C@@]1(C(=O)OC)N=C(c2ccc(OCCCO)cc2)O[C@@H]1c1ccccc1CN=[N+]=[N-] | / | ?
40 | CC(C)NC(=O)Nc1ccc2c(c1)C(=O)N([C@H](C)CO)C[C@@H](C)[C@@H](CN(C)S(=O)(=O)c1ccccc1)OCCCC[C@@H](C)O2 | -1 | -6
41 | CO[C@H]1CN(C)C(=O)c2ccc(NC(=O)Nc3ccc(C(F)(F)F)cc3)cc2OC[C@@H](C)NC[C@H]1C | 2 | -12
42 | Cc1noc(C)c1NC(=O)N(C)C[C@H]1OCCCC[C@H](C)Oc2ccc(NC(=O)C3CCCCC3)cc2C(=O)N([C@@H](C)CO)C[C@H]1C | 12 | 23
43 | O=C(NC[C@@H]1[C@@H](c2ccccc2)[C@@H](CO)N1Cc1ccccn1)NC1CCCC1 | 0 | 0
44 | CCCNC(=O)N(C)C[C@H]1Oc2cc(-c3cncnc3)ccc2S(=O)(=O)N([C@@H](C)CO)C[C@@H]1C | 0 | 13
45 | CNC[C@@H]1Oc2cc(Br)ccc2S(=O)(=O)N([C@H](C)CO)C[C@@H]1C | -3 | -7
46 | CNC[C@@H]1Oc2cc(C#CC3CCCC3)ccc2S(=O)(=O)N([C@H](C)CO)C[C@H]1C | / | ?
47 | O=C(C[C@H]1C=C[C@@H](NC(=O)NC2CCCCC2)[C@@H](CO)O1)NCc1ccc(F)cc1 | 7 | -11
48 | CCC(=O)Nc1ccc2c(c1)C(=O)N(C)C[C@@H](OC)[C@@H](C)CN(C(=O)CC1CC1)[C@H](C)CO2 | -5 | -3
49 | O=C(C[C@@H]1C=C[C@H](NC(=O)c2cccc(F)c2)[C@@H](CO)O1)NCc1ccc(Oc2ccccc2)cc1 | -8 | -10
50 | CCCNC(=O)N(C)C[C@H]1Oc2cc(-c3ccncc3)ccc2S(=O)(=O)N([C@@H](C)CO)C[C@H]1C | 12 | 16
51 | C[C@H]1CN([C@@H](C)CO)C(=O)c2cc(NC(=O)CCN3CCOCC3)ccc2O[C@@H]1CN(C)C(=O)Nc1ccccc1 | 11 | 22
52 | O=C([C@H]1[C@H](CO)[C@H]2Cn3c(cccc3=O)[C@H]2N1Cc1cc(F)ccc1F)N1CCOCC1 | 6 | -8
53 | CN1CCN(C(=O)[C@H]2[C@H](CO)[C@H]3Cn4c(ccc(C5=CCCC5)c4=O)[C@@H]2N3S(C)(=O)=O)CC1 | 8 | 20
54 | C/C=C/c1ccc([C@H]2[C@@H](CO)N(CC3CCCCC3)[C@@H]2CNC(C)C)cc1 | / | ?
55 | C[C@H](CO)N1C[C@H](C)[C@@H](CN(C)Cc2ccc(C(=O)Nc3ccccc3N)cc2)Oc2ccc(NC(=O)Cc3cn(C)c4ccccc34)cc2C1=O | 5 | 15
56 | C[C@H](CO)N1C[C@H](C)[C@H](CN(C)Cc2ccc(Cl)c(Cl)c2)Oc2ccc(NC(=O)Nc3ccc4c(c3)OCO4)cc2C1=O | -14 | -14
57 | C[C@H]1CN([C@@H](C)CO)C(=O)c2cccc(NC(=O)C3CCOCC3)c2O[C@H]1CN(C)S(=O)(=O)c1cccs1 | 8 | 13
58 | O=C(C[C@H]1CC[C@H](NS(=O)(=O)c2ccc(F)cc2)[C@@H](CO)O1)NCCN1CCCCC1 | 12 | 14
59 | C[C@H]1CN([C@@H](C)CO)C(=O)c2cccc(NS(=O)(=O)c3cccs3)c2O[C@H]1CN(C)Cc1ccc(Cl)c(Cl)c1 | -7 | -21
60 | COc1ccc(NC(=O)Nc2cccc3c2O[C@H](CN(C)S(=O)(=O)c2ccc(C)cc2)[C@H](C)CN([C@H](C)CO)C3=O)cc1 | -9 | -6
61 | Cc1noc(C)c1NC(=O)Nc1ccc2c(c1)C(=O)N([C@@H](C)CO)C[C@@H](C)[C@H](CN(C)S(=O)(=O)c1cccs1)OCCCC[C@H](C)O2 | 12 | 23
62 | Cc1ccc(S(=O)(=O)Nc2ccc3c(c2)C(=O)N([C@@H](C)CO)C[C@H](C)[C@H](CN(C)C(=O)Nc2c(C)noc2C)OCCCC[C@H](C)O3)cc1 | 8 | 5
63 | CO[C@H]1CN(C)C(=O)c2cc(NC(=O)C3CCC3)ccc2OC[C@H](C)N(Cc2ccc(F)cc2)C[C@@H]1C | 9 | 11

Structural class: those above containing an aryl methoxy group.
entry | mol | Vaccinia inh Venus | Vaccinia inh
11 | COc1ccc(S(=O)(=O)N(C)C[C@@H]2Oc3c(NS(=O)(=O)c4c(C)noc4C)cccc3C(=O)N([C@H](C)CO)C[C@@H]2C)cc1 | 8 | 0
15 | COc1ccccc1S(=O)(=O)N[C@H]1CC[C@@H](CCn2cc(C3CCCC3)nn2)O[C@H]1CO | 8 | 4
18 | COc1ccc(-c2ccc(C3[C@H]4CNC[C@@H]3N4C(=O)Nc3ccccc3F)cc2)cc1 (stereo not given in full) | -9&-4 | -16&-8
25 | COc1ccccc1-c1ccc(C2[C@H]3CNC[C@@H]2N3Cc2cc(-c3ccccc3)on2)cc1 (stereo not given in full) | 1 | -6
26 | COc1ccc(-c2ccc3n(c2=O)C[C@@H]2[C@@H](CO)[C@H](C(=O)NCC4CC4)[C@H]3N2S(C)(=O)=O)cc1 | 8 | 14
38 | COc1ccc(NC(=O)Nc2cccc3c2O[C@@H](CN(C)Cc2ccncc2)[C@H](C)CN([C@@H](C)CO)C3=O)cc1 | -2 | 7
60 | COc1ccc(NC(=O)Nc2cccc3c2O[C@H](CN(C)S(=O)(=O)c2ccc(C)cc2)[C@H](C)CN([C@H](C)CO)C3=O)cc1 | -9 | -6

Not all compounds are listed (hit frequency here may not be typical).
